Screening results (PubChem)
GCN5L2 inh – qHTS Assay for Inhibitors of GCN5L2 | hit rate 0.21% among 390,000 | Histone acetyltransferase KAT2A (Homo sapiens), Q92830 | Potency, µM (top dose mostly 58.9 µM), without a hit: at the top dose activity change, negative = inhibition, hits mostly inhibitors | GCN5L2 HAT assay, ThioGlo1 CoA-SH fluorescence; active = well fitted inhibition curve with a large enough effect; inconclusive = small, poorly fitted or top-dose-only effect, or another doubt; inactive = no such curve, though single readings can be large or run the other way
Target sequence (Q92830 whole entry, looked up): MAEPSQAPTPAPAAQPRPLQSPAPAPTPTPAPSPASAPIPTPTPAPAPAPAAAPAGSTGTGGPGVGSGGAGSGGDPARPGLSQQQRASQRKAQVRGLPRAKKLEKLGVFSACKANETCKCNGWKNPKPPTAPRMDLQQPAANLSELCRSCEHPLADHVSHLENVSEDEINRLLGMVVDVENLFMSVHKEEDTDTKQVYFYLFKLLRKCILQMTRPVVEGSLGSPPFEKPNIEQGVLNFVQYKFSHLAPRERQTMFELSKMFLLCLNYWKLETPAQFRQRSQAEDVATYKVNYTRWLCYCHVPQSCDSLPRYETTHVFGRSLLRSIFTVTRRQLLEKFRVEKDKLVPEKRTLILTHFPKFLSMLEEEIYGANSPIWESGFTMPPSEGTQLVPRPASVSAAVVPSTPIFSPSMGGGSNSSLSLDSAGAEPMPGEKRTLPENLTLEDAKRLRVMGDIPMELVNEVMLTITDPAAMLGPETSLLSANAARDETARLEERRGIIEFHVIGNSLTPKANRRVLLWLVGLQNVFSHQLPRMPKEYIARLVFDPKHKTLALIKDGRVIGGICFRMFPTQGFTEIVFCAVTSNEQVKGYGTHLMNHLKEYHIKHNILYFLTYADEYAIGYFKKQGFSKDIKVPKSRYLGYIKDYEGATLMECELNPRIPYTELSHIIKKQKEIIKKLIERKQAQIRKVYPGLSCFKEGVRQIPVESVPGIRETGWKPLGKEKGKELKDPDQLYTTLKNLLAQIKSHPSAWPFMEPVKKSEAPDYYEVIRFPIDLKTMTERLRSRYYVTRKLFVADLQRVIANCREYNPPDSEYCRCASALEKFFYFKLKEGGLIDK
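Preincubate 20nM GCN5L2 with compound 15 min, RT → add 50uM ThioGlo1 + 75uM H3(1-25) + 70uM acetyl-CoA → read fluorescence 0 and 20 min. Primary qHTS; fluorescent artifacts likely.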
* = called active by the depositor; ? = inconclusive; & = joins results of further samples. % is set by controls: 0 for no effect and ±100 for the full control effect; potency is the fitted concentration of half-maximal effect. These rows are one share of the data, and most or all hits are left out here.

molecule	GCN5L2 inh
CCOc1ccc(C(CCc2ccccc2)NC(=O)c2ccccc2)cc1OCC (stereo unspecified)	1.6%
Cn1c(CCNC(=O)c2ccccc2)nc2cc(NC(=O)c3ccco3)ccc21	-9.1%
C=CC(O)Cc1c(C)n[nH]c1C (stereo unspecified)	-3.8%
O=C(NN1C(=O)C2C3C=CC(C4CC34)C2C1=O)c1ccc(Cl)cc1Cl (stereo unspecified)	-17.0%
N#Cc1cc2c(nc1SCc1ccc(Cl)cc1)CCCC2	-0.7%
O=C(CCC(=O)c1cccs1)NC(c1ccccc1)c1ccccc1	-6.1%
COCC(=O)N(C)C[C@H]1N[C@@](C)(C(=O)OC)[C@H]2C(=O)N(Cc3ccccc3)C(=O)[C@@H]12	-0.5%
Cc1ccc(CCNC(=O)Cn2cccc2)cc1	-4.0%
Cc1cccc(-c2nnn3c2nc(NCCC(C)C)c2ccccc23)c1	2.2%
CCOc1ccc(C2C(C#N)=C(N)Oc3cc(C)[nH]c(=O)c32)cc1OC (stereo unspecified)	-4.9%
CCNC(=O)Nn1c(C)nnc1C	-3.0%
CC(=O)Nc1ccc(NC(=S)NC(=O)C2CCCC2)cc1	-0.5%

molecule	GCN5L2 inh
COCCn1c(SCC(=O)N2CCCCC2)nc2cccnc21	-8.5%
Cc1nnc(SCC(=O)Nc2ccc(N3CCOCC3)cc2)n1Cc1ccccc1	0.2%
O=c1c(=O)n(-c2cccc(Cl)c2)ccn1Cc1cccc(F)c1	-2.8%
COc1ccccc1OCCSc1nc2ccccc2n1CCO	1.9%
CCOC(=O)c1cccc(NC(=O)NC2COc3ccccc3C2)c1 (stereo unspecified)	-7.1%
COc1cccc(NC(=O)C(=O)N/N=C/c2cc(C)n(-c3ccc(Cl)c(Cl)c3)c2C)c1	0.8%
COc1ccc(C(=O)NNC(=O)CCn2nnc(-c3ccc(Cl)cc3)n2)cc1OC	3.5%
CCOc1ccccc1N1CCN(C(=O)c2cccc(S(=O)(=O)N3CCOCC3)c2)CC1	0.1%
O=C(Nc1ccc(Cl)c(Cl)c1)Nc1nnc(CC2=CCCCC2)s1	-5.5%
CC1CCN(C(=O)c2[nH]cnc2C(=O)NCc2ccc(CNC(=O)OC(C)(C)C)cc2)CC1	-5.7%
COC(=O)C(CCCCN1C(=O)C2C3C=CC(C3)C2C1=O)N1C(=O)C2C3C=CC(C3)C2C1=O (stereo unspecified)	-0.2%
CCc1ccccc1NC(=O)c1cc(S(=O)(=O)N(C)C)ccc1N1CCCC1	-9.2%

molecule	GCN5L2 inh
CCCC1=Nc2cc(C(=O)NCCN3CCOCC3)ccc2Sc2ccc(C)cc21	-7.0%
Cc1cnc(CNc2ncncc2-c2ccc(C(=O)N(C)C)cc2)cn1	-12.9%
N#Cc1nc(Cc2cccc3ccccc23)oc1N1CCOCC1	0.1%
O=C(CSc1nnc(-c2ccc(OC(F)F)cc2)o1)N1CCOCC1	-11.5%
CCc1ccc2oc(C(=O)N(Cc3cccc(Cl)c3)Cc3ccco3)c(C)c2c1	-3.3%
CCOC(=O)c1[nH]c2ccccc2c1NC(=O)Nc1ccc(OC)cc1	-1.3%
O=S(=O)(CCSc1ccc(C(F)(F)F)cn1)c1ccccc1	-5.4%
COc1ccc(Nc2cc(C(=O)NCCCN(C)Cc3ccccc3)c3ccccc3n2)cc1	-6.3%
CCN(CC)CCCNC(=O)c1ccccc1C	-3.6%
C/C(=C\c1ccccc1)C1NC(=O)c2c(sc3c2CCCC3)N1 (stereo unspecified)	-7.7%
Cc1ccc(NC(=O)CSc2nc3[nH]ncc3c(=O)[nH]2)cc1	-3.7%
Cc1ccc(/C=N/n2c(-c3cccc(Cl)c3)n[nH]c2=S)o1	-5.7%

In the list so far, 3 have fluorine:
molecule	GCN5L2 inh
O=c1c(=O)n(-c2cccc(Cl)c2)ccn1Cc1cccc(F)c1	-2.8%
O=C(CSc1nnc(-c2ccc(OC(F)F)cc2)o1)N1CCOCC1	-11.5%
O=S(=O)(CCSc1ccc(C(F)(F)F)cn1)c1ccccc1	-5.4%

(more compounds)
molecule	GCN5L2 inh
COc1ccc(-c2ccccc2)cc1NCc1ccccc1C	-6.1%
COC(=O)C1CCN(C(=O)COc2ccc(N(C)S(=O)(=O)c3ccc(C)cc3)cc2)CC1	-6.5%
O=C1c2ccccc2C(=O)N1CCOc1ccccc1Cl	?
CCC1C(=O)NCCN1C(=O)c1cccc(OC2CCN(S(=O)(=O)N(C)C)CC2)c1 (stereo unspecified)	-3.0%
COc1ccc(CCN2C(=O)c3oc4cc(C)cc(C)c4c(=O)c3C2c2ccc(F)cc2)cc1OC (stereo unspecified)	0.3%
Cc1cccc(NC(=O)c2ccc(N(Cc3ccccc3)S(C)(=O)=O)cc2)c1	-4.3%
Cc1cc(C)cc(N2C(=O)C3C4C=CC(C4)C3C2=O)c1 (stereo unspecified)	-0.3%
CC(C)CCNC(=O)CN1C(=O)CCn2nc(-c3cn(C)c4ccccc34)cc21	-1.9%
COc1cc(C(=O)N(Cc2ccc(F)cc2)C2CCS(=O)(=O)C2)cc(OC)c1OC (stereo unspecified)	-9.7%
O=C1NC(=O)C(c2ccccc2)(c2ccccc2)N1	-6.2%&-0.3%&18.4%&0.9%&-1.3%
CN(C)S(=O)(=O)c1ccc(Cl)c(NC(=O)COC(=O)CN2C(=O)C3CCCCC3C2=O)c1 (stereo unspecified)	-9.6%
COc1ccc(C(=O)N2CCC(n3nccc3NC(=O)C3CC3)CC2)cc1F	-1.3%

molecule	GCN5L2 inh
COc1cc(/C=N/NC(=O)c2ccc(F)cc2)ccc1OC(=O)c1ccco1	-7.1%
O=C(NCc1ccccc1)N1CCC(CO)(Cc2cccc(F)c2)CC1	0.1%
Cc1ccc2[nH]c(=O)c(CN(CCCN3CCOCC3)C(=O)Nc3cccc(Cl)c3)cc2c1	-3.5%
COCCN1Cc2cccc(C(=O)Nc3c(C)cc(C)cc3C)c2C1=O	0.3%
COc1ccc(NC(=O)c2ccc3c(=O)n(-c4ccc(OC)cc4OC)c(=S)[nH]c3c2)cc1	-11.8%
Cc1cc(C)cc(-n2c(SCC(=O)NCc3ccco3)nc3ccccc3c2=O)c1	0.5%
CCOc1ccc(CC(=O)NNC(=S)NC)cc1Br	-10.3%
CCOc1ccc(C(=O)c2cn(Cc3ccc(Cl)cc3)c3cc(OC)c(OC)cc3c2=O)cc1	-8.6%
O=c1/c(=C/c2cccc3ccccc23)sc2ncnn12	-7.2%
O=C(c1ccco1)N1CCN(C(c2ccccc2F)c2nnnn2Cc2cccs2)CC1 (stereo unspecified)	-3.7%
CC(=O)NC(C)c1nc2ccccc2n1CC(=O)N1C(C)CCCC1C (stereo unspecified)	-2.2%
COc1cccc(NC(=O)c2oc3ccc(S(=O)(=O)N(C)C4CCCCC4)cc3c2C)c1	-10.5%

molecule	GCN5L2 inh
COc1ccc(OCC(O)CNC(=O)Nc2cccc3ccccc23)cc1 (stereo unspecified)	-9.1%
Cc1ccc(C(=O)N2CCC(c3c[nH]c4ccccc34)(c3c[nH]c4ccccc34)CC2)cc1	-3.5%
CC1CC(N(C(=O)C2CC2)c2ccccc2)c2ccccc2N1C(=O)C1CC1 (stereo unspecified)	-2.5%
Cc1ccc(/C=N/NC(=O)Cn2nnc(N)n2)o1	-17.7%
COc1ccc(NC(=O)c2nc[nH]c2C(=O)N2CCC(C)CC2)cc1	10.9%
CC(OC(=O)c1ccccc1OCc1ccc(Cl)cc1)C(N)=O (stereo unspecified)	-5.1%
O=C(Nc1nccs1)c1ccc(-c2ccc(Cl)cc2)o1	0.7%
O=C(CSc1nnc(-c2ccccc2)c(-c2ccccc2)n1)N1CCOCC1	3.2%
CC1(C)CC[C@]2(C(=O)O)CC[C@]3(C)C(=CC[C@@H]4[C@@]5(C)CC[C@H](O[C@@H]6O[C@H](C(=O)O)[C@@H](O)[C@H](O[C@@H]7OC[C@H](O)[C@H](O)[C@H]7O)[C@H]6O)C(C)(C)[C@@H]5CC[C@]43C)[C@@H]2C1	29.5%
Fc1ccccc1CNc1ccc(Cl)c(Cl)c1	-25.9%
COC(=O)c1[nH]c2ccc(C)cc2c1NC(=O)CN1CCC(C)CC1	0.8%
COc1ccc(/C=C2\SC(=S)N(CCCC(=O)Nc3ccccc3C(=O)O)C2=O)cc1OC	-29.7%

molecule	GCN5L2 inh
Cc1ccc(CSC2=NCCN2S(=O)(=O)c2ccccc2)cc1	-9.0%
NC(N)=N/N=C/c1c(Cl)cccc1Cl	1.9%&-1.3%&-4.4%&0.4%
CC(C)CCCC(C)C1CCC2C3CC=C4CC(O)CC[C@@]4(C)C3CC[C@@]12C (stereo partly specified)	-3.1%
O=C(CNC(=O)c1ccccc1)NC1(C(=O)NC2CCCC2)CCCCC1	-12.3%
Cc1cc(C)nc(SCc2cc(=O)c(OC(=O)c3ccc(S(=O)(=O)N4CCCC4)cc3)co2)n1	-1.7%
O=C(c1ccc(N2CCCCC2)c([N+](=O)[O-])c1)N(c1ccccn1)c1ccccn1	-7.7%
CCOc1ccc(N(CC(=O)N2CCN(c3ccccc3)CC2)S(=O)(=O)c2c(C)noc2C)cc1	-5.7%
CC1CN(C(=O)COC(=O)c2cc(S(N)(=O)=O)c(Cl)cc2Cl)CC(C)O1 (stereo unspecified)	-2.2%
O=C(COC(=O)Cc1n[nH]c(=O)c2ccccc12)NNC(=O)c1ccc(Br)cc1	1.1%
CCn1c(SCC(=O)N/N=C/c2ccc(C)o2)nnc1-c1ccc(C)cc1	2.3%
Cc1occc1C(=O)NCCc1cccc(Cl)c1	?
CC1CCCN(c2ccc([N+](=O)[O-])cc2C(=O)c2ccccc2)C1 (stereo unspecified)	-6.4%

molecule	GCN5L2 inh
Cc1ccc(C(=O)N2CCC3(CC2)Oc2ccc(Cl)cc2C(=O)C32CC(c3cccnc3)=NO2)s1 (stereo unspecified)	-10.4%
O=C(NC1CCCC1)c1ccc2c(=O)n(Cc3ccccc3)c(SCc3ccccc3)nc2c1	4.4%
O=C(Nc1ccc(S(=O)(=O)Nc2ncccn2)cc1)c1ccc(S(=O)(=O)N2CCCC2)cc1	5.7%
CCOc1ccc(C(=O)NC(C(=O)NCCc2ccc(S(N)(=O)=O)cc2)C(C)C)cc1 (stereo unspecified)	-3.5%
N#CCCN(C(=O)c1cc2c(s1)-c1ccccc1S(=O)(=O)C2)c1ccccc1	-5.7%
CCCn1c(SCC(=O)NC(C)c2ccccc2)n[nH]c1=O (stereo unspecified)	-2.3%
Cc1ccc(-c2ccc(S(=O)(=O)N3CCCC3)cc2)cc1	1.4%
CCCCNC(=O)CN1C(=O)NC2(CCOc3ccccc32)C1=O (stereo unspecified)	0.8%
CCCC(=O)Nc1cccc(NC(=O)c2ccc([N+](=O)[O-])cc2Cl)c1	-7.4%
COc1ccc([C@H]2CC(=O)C=C(c3cc(C(F)(F)F)cc(C(F)(F)F)c3)C2)cc1	-15.9%
CC(C(=O)Nc1c2c(cc3c1CCC3)CCC2)N1CCCC1 (stereo unspecified)	-2.7%
Cc1cc(C(C)(C)C)c(O)c(C)c1CC1=NCCN1	1.8%

molecule	GCN5L2 inh
CCN1C(=O)C2(/C(=C(\O)c3ccc4c(c3)OCCO4)C(=O)C(=O)N2CCCOC)c2ccccc21 (stereo unspecified)	-11.5%
CCOC(=O)c1cc2c(=O)n3ccccc3nc2n(CCCOC)c1=NC(=O)C(C)(C)C	?
Cc1ccc(C(=O)CSc2nnnn2C(C)C)c(C)c1	1.9%
CCc1noc(C)c1C(=O)OCC(=O)NCCc1ccc(OC)cc1	-0.4%
CCOc1ccc(NC(=O)CSc2nnc(C3CC3)n2N)cc1	-4.7%
COc1ccc(C2CC(=O)c3c(ccc4ccccc34)N2)cc1OC (stereo unspecified)	-12.8%
C=CCSc1n[nH]c(-c2ccc(OC)cc2)n1	-3.7%
CCn1c(=O)cc(SCC(=O)NCCCN2CCC(C)CC2)c2ccccc21	-10.3%
O=C(NCc1ccncc1)c1cn(-c2ccccc2)nc1-c1cccnc1	-2.1%
CCCCOc1ccc(NC(=O)CSCC(=O)OCC)cc1	-5.0%
CC1CCC(C(=O)NC(C(=O)NCc2ccccn2)C(C)C)CC1 (stereo unspecified)	-0.3%
C=CCC1Cc2c(Br)cccc2C(CC=C)N1 (stereo unspecified)	-17.9%
O=C(c1cc2ccccc2oc1=O)N(Cc1cccc(Br)c1)C1CCS(=O)(=O)C1 (stereo unspecified)	-2.2%
COc1ccc2oc(C(=O)OCC(=O)N(Cc3ccccc3)C(C)(C)C)c(C)c2c1	-16.5%
CN(CC(=O)Nc1ccccc1Cl)C(=O)c1cccc(S(=O)(=O)N2CCN(c3ccc(F)cc3)CC2)c1	-32.6%

Some of these compounds in order of heavy-atom count, descending:
molecule	GCN5L2 inh
CCN1C(=O)C2(/C(=C(\O)c3ccc4c(c3)OCCO4)C(=O)C(=O)N2CCCOC)c2ccccc21 (stereo unspecified)	-11.5%
COc1ccc2oc(C(=O)OCC(=O)N(Cc3ccccc3)C(C)(C)C)c(C)c2c1	-16.5%
CC1CCC(C(=O)NC(C(=O)NCc2ccccn2)C(C)C)CC1 (stereo unspecified)	-0.3%
C=CCSc1n[nH]c(-c2ccc(OC)cc2)n1	-3.7%
